Bioassay records deposited in PubChem BioAssay by several laboratories.
Beta apoptosis: inhibitors of cytokine-induced beta cell apoptosis, primary screen, luminescence; INS-1E cytokine-induced death, ATP luminescence, 48 h; percent of positive-control rescue, neutral wells zero; protection from apoptosis, % (test concentration not listed); actives 0.8% (n = 300,000);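 active = all replicates at 75% or more, or half of them and the mean; inconclusive = half reach 75% but not the mean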;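 also: 0% = cytokine-treated negative control wells and 100% = positive control rescue; higher means more ATP so stronger rescue from cytokine killing; wells of about 40 µL received 100 nL stock; the first replicate is given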
UCH37 DUB inh: inhibitors of human UCH37 deubiquitinase, primary screen, biochemical, Ub-AMC cleavage, fluorescence; purified proteasome/UCH37; inhibition, % (test concentration not listed); actives 0.33% (n = 330,000);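 active = mean of two replicates above 20%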;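 also: 0% = compound-free wells with enzyme and 100% = wells lacking proteasome; stock transfer was 100 nL into about 20 µL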
Target sequence (Q9Y5K5 whole entry, looked up): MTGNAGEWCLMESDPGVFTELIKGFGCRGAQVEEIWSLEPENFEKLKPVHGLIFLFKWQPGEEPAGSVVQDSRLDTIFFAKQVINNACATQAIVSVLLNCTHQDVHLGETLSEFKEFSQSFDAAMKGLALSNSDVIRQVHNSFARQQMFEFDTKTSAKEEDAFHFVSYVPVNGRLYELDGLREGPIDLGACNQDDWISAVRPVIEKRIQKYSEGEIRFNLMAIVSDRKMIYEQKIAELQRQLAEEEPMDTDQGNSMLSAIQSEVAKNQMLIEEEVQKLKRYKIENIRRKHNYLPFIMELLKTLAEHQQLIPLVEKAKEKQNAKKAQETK
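Material: human UCH37 enzyme supplied as purified proteasome complex. Measure: % inhibition of Ub-AMC cleavage fluorescence. Medium: pH 7.4 Tris-HCl (50 mM) with ovalbumin, ATP-MgCl2, DTT. Times: 30 min preincubation with enzyme, 25 min cleavage at room temperature. Detection: AMC fluorescence intensity at 355/460 nm.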
AF4-AF9 inh: inhibitors of AF4 peptide binding to AF9, primary screen, biochemical, AlphaScreen, biotin-AF4 peptide, FLAG-AF9, single point; Protein AF-9 (Homo sapiens), P42568; inhibition, % at 10 µM; actives 0.47% (n = 350,000);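 active = every replicate reaching a set inhibition limit, whatever the replicate mean, cut at about 25% in these data; inconclusive = mean inhibition reaches that limit but some replicates miss it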;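 also: 0% = plate neutral control median and 100% = total signal loss; the record names both 10 and 1 µM as test concentration; the first replicate is given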
Target sequence (P42568 whole entry, looked up): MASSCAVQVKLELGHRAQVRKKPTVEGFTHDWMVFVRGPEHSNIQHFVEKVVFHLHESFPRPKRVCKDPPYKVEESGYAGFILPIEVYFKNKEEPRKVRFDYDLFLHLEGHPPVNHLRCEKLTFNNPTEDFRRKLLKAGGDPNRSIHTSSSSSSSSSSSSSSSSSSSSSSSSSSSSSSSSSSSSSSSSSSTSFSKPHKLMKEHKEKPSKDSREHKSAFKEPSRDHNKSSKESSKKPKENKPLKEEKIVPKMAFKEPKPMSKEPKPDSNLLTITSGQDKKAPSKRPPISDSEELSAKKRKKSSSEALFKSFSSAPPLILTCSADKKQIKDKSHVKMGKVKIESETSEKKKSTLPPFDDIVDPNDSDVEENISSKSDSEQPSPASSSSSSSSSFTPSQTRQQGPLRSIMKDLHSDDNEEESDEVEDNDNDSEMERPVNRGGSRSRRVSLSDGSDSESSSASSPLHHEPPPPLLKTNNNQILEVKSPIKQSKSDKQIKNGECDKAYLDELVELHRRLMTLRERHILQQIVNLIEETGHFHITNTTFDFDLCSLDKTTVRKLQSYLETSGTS
Ecoli growth: E. coli growth inhibition, primary screen, OD600. Escherichia coli growth, 23 h; stronger effect = lower value. AID 1053175, 2014. actives 0.21% (n = 330,000). OD600 absorbance (concentration not given with the values);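 active = OD600 absorbance below the run mean of sample wells minus 3.6 SD, in any replicate, cut at about 0.56 in these data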;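 also: stock transfer was 300 nL into about 60 µL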
FGF22 binding: binders of human FGF22 protein, primary screen, FGF22 synaptogenesis inhibitor project, biophysical, thermal shift, single point; Fibroblast growth factor 22 (Homo sapiens), Q9HCT0; recombinant FGF22 thermal shift, SYPRO orange fluorescence; percent of sucrose octasulfate shift, DMSO zero; calls only at 9.99 µM; actives 1.5% (n = 340,000); AID 651658, 2012;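 active = melting point raised past a set limit in the mean and every replicate; inconclusive = no clear call; three in four hits are not shown here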
Target sequence (Q9HCT0 whole entry, looked up): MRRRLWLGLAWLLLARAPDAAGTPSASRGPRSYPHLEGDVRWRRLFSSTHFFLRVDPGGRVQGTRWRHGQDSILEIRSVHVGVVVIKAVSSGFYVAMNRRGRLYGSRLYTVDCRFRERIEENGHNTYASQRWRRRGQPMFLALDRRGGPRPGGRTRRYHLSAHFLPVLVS
T cruzi repl: inhibitors of intracellular T. cruzi growth, primary screen, luminescence, NIH3T3 host cells | T. cruzi beta-gal in NIH3T3, 90 h | inhibition, % (no concentration beside the values) | actives 1.4% (n = 300,000) | AID 1885, 2009;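 active = mean inhibition across valid replicates above about 55%, limit read from the data; inconclusive = mean below that limit but half or more replicates reach it; inactive = mean below it, under half of replicates reach it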;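 also: signal also drops with host cell toxicity which is not excluded here; 0% = plate median of DMSO wells and 100% = zero luminescence signal; higher percent means less beta-gal luminescence so fewer parasites; stock transfer was 50 nL into about 50 µL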
Ecoli rRNA inh: reduced GFP signal of wild-type E. coli, primary screen, bacterial rRNA inhibitor project, GFP/RFP fluorescence, OD600, single point | E. coli WT GFP vs humanized-ribosome RFP mutants, 24 h; stronger effect = lower value; DMSO median 0, no signal -100 | GFP signal change (wild-type ribosome), % (concentration not given with the values) | actives 1.6% (n = 350,000);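 active = significant combined selectivity score with lowered wild-type GFP, culture density cut under 30%, mutant RFP and density less affected; inactive = any of these conditions unmet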; also: one replicate is shown; some compounds called inactive have numbers as strong as hits
A1 inh: caspase 3/7 activation in MEF A1-2A-BIM cells, primary screen, A1 inhibitor project, cell-based, luminescence, HTS. Caspase-Glo 3/7 luminescence, 3 h; percent of clofoctol response, vehicle zero. caspase activation, % (concentration not given with the values). actives 0.066% (n = 330,000). AID 2462, 2010;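 active = over half of replicate activation scores above 10%, or exactly half above 10 with the replicate mean above 10; inconclusive = replicate mean below 10 yet half the replicates above 10; inactive = over half of replicates below 10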;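 also: wells of about 30 µL received 50 nL stock; many hits fall short of the cut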
Ecoli rRNA inh OD600: recorded beside Ecoli rRNA inh, whose call it bears; OD600 change, %; measured here: OD600 growth;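 optical density of the mix in the first replicate; 0 = DMSO median and -100 = no signal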
Ecoli rRNA inh RFP: second read-out of Ecoli rRNA inh, no call of its own (marks repeat the call); RFP signal change, %; measured here: RFP humanized mutant strains;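 first replicate; 0 = DMSO median and -100 = no signal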
Starred values were filed as active, the others as inactive; i = inactive; ? = inconclusive; · = no result given; + = active, no number. Some of the compounds tested; the hit share may differ from the screen's.

SMILES	Beta apoptosis	UCH37 DUB inh	AF4-AF9 inh	Ecoli growth	FGF22 binding	T cruzi repl	Ecoli rRNA inh	Ecoli rRNA inh OD600	Ecoli rRNA inh RFP	A1 inh
Cc1cc2ncn(CCCCOc3ccccc3)c2cc1C	0	1.3	·	0.67	·	-45	·	·	·	0.1
COc1cc(C2C(C#N)=C(N)Oc3n[nH]c(-c4cccnc4)c32)ccc1OCC(N)=O (centres undefined)	0	1.2	1.7	0.69	i	-5	12	13	-4.1	0.4
CN(C)S(=O)(=O)c1cccc(NC(=O)c2ccccc2OCc2ccc(F)cc2)c1	7	1.3	-3.3	0.63	i	24	-1	-8	2.7	0.2
CCn1ccnc1CN(C)C(=O)CCc1nnc(CCC2CCCCC2)o1	-4	-0.1	-0.8	0.69	i	6	0	1	3.3	0.4
CCOc1ccc(N(CC(=O)NCc2ccc(OC)cc2)S(=O)(=O)c2c(C)noc2C)cc1	0	-0.8	·	0.67	·	1	·	·	·	0.1
Cc1ccc(OCCNC(=O)CNC(=O)c2ccc(C)cc2)cc1	-3	6.4	-1.2	0.65	i	-5	6	7	-1.6	1.7
CCN(CC)S(=O)(=O)c1ccc2oc(Nc3ccc4c(c3)OCCO4)nc2c1	5	3.4	·	0.72	·	24	·	·	·	-0.2
CCN(C(=O)c1ccc(NC(C)=O)cc1)c1ccccc1C	0	3.0	·	0.68	·	-7	·	·	·	0.7
CN(CC(=O)Nc1cccc(Cl)c1)S(=O)(=O)c1ccc2c(c1)n(C)c(=O)c(=O)n2C	0	0.1	2.2	0.7	i	-17	10	13	-0.9	-0.2
COc1ccc2[nH]c(C(=O)Nc3ccc(C)c(F)c3)cc2c1	3	-10	-6.4	0.69	i	19	-2	-9	1.4	0.5
CCCCCCCCCCCCC/C=C/[C@@H](O)[C@@H](N)CO	-6	-1.7	-13	·	i	45	·	·	·	-0.3
CCOCCCN(C(=O)c1snc(C(N)=O)c1N)C(C(=O)NC(C)(C)C)c1ccc(Cl)cc1 (centres undefined)	0	-45	6.6	0.68	i	-2	-1	1	0.8	0.5
CCOc1ccc(OC(=O)c2cccc(S(=O)(=O)N3CCN(C)CC3)c2)cc1	3	1.1	3.5	0.71	i	-3	-1	-1	2.0	-0.3
CC(=O)OCC(=O)C1CCC2C3CC=C4CC(O)CCC4(C)C3CCC12C (centres undefined)	4	0.9	-2.3	0.67	i	·	·	·	·	0.6
Fc1ccccc1CSc1nnc(Cn2cnc3ccccc32)n1-c1ccccc1	-3	3.8	11	0.67	i	9	-24	-40	5.0	-0.2
O=S(=O)(Nc1ccc(Cl)cc1)c1ccc(N2CCOCC2)c(NC(=S)NCCN2CCOCC2)c1	-2	4.6	-3.1	0.71	i	-16	-4	-5	1.2	2.4
CC1(C)CC(=O)C/C(=N\NC(=O)C2CC23CCC3)C1 (centres undefined)	-6	·	1.7	·	i	-11	12	8	3.9	0.2
O=C(Nc1cccc(S(=O)(=O)N2CCCC2)c1)c1cccnc1	-1	-2.9	1.7	0.76	i	10	4	9	-0.7	-0.2
O=C(c1ccco1)N1CCN(C(=O)c2ccc(Cn3cc(Br)cn3)o2)CC1	-4	-2.7	·	0.74	·	2	·	·	·	0.4
Cc1ccc2c(CN3CCC(C(N)=O)CC3)cc(=O)oc2c1C	-5	2.5	-0.7	0.68	i	2	3	3	3.2	-0.6

Compound profiles, as listed above. Values in the order: Beta apoptosis, UCH37 DUB inh, AF4-AF9 inh, Ecoli growth, FGF22 binding, T cruzi repl, Ecoli rRNA inh, Ecoli rRNA inh OD600, Ecoli rRNA inh RFP, A1 inh
O=C(c1ccco1)N1CCN(C(=O)c2ccc(Cn3cc(Br)cn3)o2)CC1 is entered as -4, -2.7, ·, 0.74, ·, 2, ·, ·, ·, 0.4
Cc1ccc2c(CN3CCC(C(N)=O)CC3)cc(=O)oc2c1C is entered as -5, 2.5, -0.7, 0.68, i, 2, 3, 3, 3.2, -0.6

The main list resumes, starting 4 compounds before the break.
SMILES	Beta apoptosis	UCH37 DUB inh	AF4-AF9 inh	Ecoli growth	FGF22 binding	T cruzi repl	Ecoli rRNA inh	Ecoli rRNA inh OD600	Ecoli rRNA inh RFP	A1 inh
CC1(C)CC(=O)C/C(=N\NC(=O)C2CC23CCC3)C1 (centres undefined)	-6	·	1.7	·	i	-11	12	8	3.9	0.2
O=C(Nc1cccc(S(=O)(=O)N2CCCC2)c1)c1cccnc1	-1	-2.9	1.7	0.76	i	10	4	9	-0.7	-0.2
O=C(c1ccco1)N1CCN(C(=O)c2ccc(Cn3cc(Br)cn3)o2)CC1	-4	-2.7	·	0.74	·	2	·	·	·	0.4
Cc1ccc2c(CN3CCC(C(N)=O)CC3)cc(=O)oc2c1C	-5	2.5	-0.7	0.68	i	2	3	3	3.2	-0.6
Cc1cc(C)nc(NC(=S)Nc2ccc(F)cc2F)c1	-11	0.1	0.4	0.69	i	8	20	18	-0.1	-0.8
O=C(NCc1ccc2c(c1)OCO2)C12CN(Cc3ccccc3)CC1C(c1cccc([N+](=O)[O-])c1)=NO2 (centres undefined)	40	3.1	-2.5	0.71	i	19	3	6	-2.6	1.4
O=C(Nc1ccc(Cl)cc1)C1CC=CCC1C(=O)OCC(F)(F)C(F)F (centres undefined)	-4	0.8	·	0.72	·	-1	·	·	·	0.8
CCCCN(C(=O)C1CSC2(C)CCC(=O)N12)c1c(N)n(Cc2ccccc2)c(=O)[nH]c1=O (centres undefined)	·	4.2	-9.0	0.71	i	·	7	12	-2.0	·
C=C1CCN([C@H](C(=O)OCc2ccc(C)cc2)C(C)C)S(=O)(=O)c2ccccc21	·	4.9	·	·	i	·	4	-9	-8.1	0.7
COc1ccc(CN(Cc2ccc(C(=O)O)cc2)C(=S)Nc2ccccc2C)cc1OC	0	5.4	-0.1	0.7	i	3	22	1	2.3	0.0
COc1cc(/C=N/n2cnnc2)ccc1Oc1nc(Cl)ncc1F	-14	·	-1.0	·	i	-17	1	4	0.4	0.1
NCCCCCc1nnc(SCC(N)=O)o1	0	0.0	-6.4	0.68	i	-17	11	3	-1.5	-1.0
Cn1c(SCC(=O)N2CCCc3ccccc32)nc2ccccc2c1=O	60	2.8	·	0.66	·	24	·	·	·	0.0
O=C(CN1C(=O)c2ccccc2S1(=O)=O)c1ccccc1	-7	-0.9	·	0.73	·	·	·	·	·	-4.9
CC1CCN(c2c(NCc3ccc(C(=O)N4CCN(C5CCCCC5)CC4)cc3)c(=O)c2=O)CC1	-6	5.9	0.4	0.72	i	-4	8	11	-0.8	-0.4
Cc1ccc(NC(=O)CCCCCN2C(=O)c3ccccc3C2=O)nc1	-6	3.4	0.1	0.7	·	10	6	1	-2.1	-0.1
CN(C)S(=O)(=O)c1cccc(NC(=S)N/N=C/C2CC=CCC2)c1 (centres undefined)	-5	·	-2.3	·	i	5	-7	-16	-5.1	-0.1
O=c1[nH]c(CN2CCN(S(=O)(=O)c3ccccc3C(F)(F)F)CC2)nc2sc3c(c12)CCCC3	7	0.3	·	0.66	·	46	·	·	·	0.1
COc1ccc(S(=O)(=O)N2CCN(c3ccccn3)CC2)cc1[N+](=O)[O-]	-4	4.8	5.3	0.7	i	2	13	5	-2.4	0.1
CCc1nnc(NC(=O)c2cc(C)nc3ccccc23)s1	3	4.1	-2.2	0.68	·	1	2	4	3.7	0.4
N=C(N)SCCc1cccc(CCSC(=N)N)c1	-10	-0.6	-12	0.68	i	-1	14	12	4.8	-0.1
COC(=O)c1cc2sc(Cl)cc2n1CC(=O)Nc1cccc(SC)c1	13	0.7	·	0.69	·	24	·	·	·	0.0
Cc1ccc(C)c(C(=O)c2ccccc2NC(=O)c2ccccn2)c1	3	1.4	1.0	0.66	i	14	5	15	-2.6	-0.6
O=C1SCCC1NC(=O)C(c1ccccc1)c1ccccc1 (centres undefined)	-6	4.0	·	0.73	i	-6	10	5	-0.5	-0.3

Of the compounds above, these have a nitro group on carbon:
SMILES	Beta apoptosis	UCH37 DUB inh	AF4-AF9 inh	Ecoli growth	FGF22 binding	T cruzi repl	Ecoli rRNA inh	Ecoli rRNA inh OD600	Ecoli rRNA inh RFP	A1 inh
O=C(NCc1ccc2c(c1)OCO2)C12CN(Cc3ccccc3)CC1C(c1cccc([N+](=O)[O-])c1)=NO2 (centres undefined)	40	3.1	-2.5	0.71	i	19	3	6	-2.6	1.4
COc1ccc(S(=O)(=O)N2CCN(c3ccccn3)CC2)cc1[N+](=O)[O-]	-4	4.8	5.3	0.7	i	2	13	5	-2.4	0.1

Further results.
SMILES	Beta apoptosis	UCH37 DUB inh	AF4-AF9 inh	Ecoli growth	FGF22 binding	T cruzi repl	Ecoli rRNA inh	Ecoli rRNA inh OD600	Ecoli rRNA inh RFP	A1 inh
CCCCn1c(N)c(N(CCOC)C(=O)c2ccc(-c3ccc(C(C)=O)cc3)o2)c(=O)[nH]c1=O	-7	-50	1.0	0.72	i	-12	20	7	-2.3	1.6
Cc1ccc2nc(-c3ccccn3)cc(C(=O)Nc3ccc4c(c3)OCO4)c2c1	-6	-1.9	-0.3	0.74	i	-5	9	11	2.8	0.3
C=CC[C@H](CC(=O)NCCO)C(=O)N[C@H](COC(=O)[C@H](CC=C)CC(=O)OC(C)(C)C)Cc1c[nH]c2ccccc12	-8	3.4	2.9	0.65	i	·	-4	1	-3.8	0.5
COCCn1c(SCC(=O)Nc2ccc(NC(C)=O)cc2)nc2c([nH]c3ccccc32)c1=O	2	-8.0	-1.5	0.72	i	-2	13	18	-1.0	?
O=C(Nc1ccc(-c2nc3ccccc3[nH]2)cc1)C1CCCO1 (centres undefined)	·	0.1	1.0	0.67	+	-10	-16	-7	-1.3	-7.2
O=C(O)c1ccccc1C(=O)NNc1ccc(F)cc1F	2	0.2	-17	0.7	i	6	3	-6	2.5	0.2
CCc1ccc(C(=O)COC(=O)c2cncc(Br)c2)cc1	-11	-2.0	2.5	0.67	i	1	21	7	-2.7	-1.2
CC(C)CN(C(=O)COC(=O)CCc1c[nH]c2ccccc12)c1c(N)n(Cc2ccccc2)c(=O)[nH]c1=O	-3	3.3	-9.5	0.68	i	-5	1	9	-1.1	-0.1
Cc1ccc(S(=O)(=O)NCCC(=O)Nc2nnc(C)s2)cc1	-1	1.4	·	0.75	·	-16	·	·	·	0.2
COc1ccc(CCN2C(=NC(=O)C(C)C)SC3CS(=O)(=O)CC32)cc1OC (centres undefined)	-2	2.4	1.0	0.66	i	8	5	-1	1.9	1.4
Cc1ccc(S(=O)(=O)Nc2ccc(-c3csc(-c4ccccc4)n3)cc2)cc1	4	-0.8	3.0	0.73	i	47	11	7	-3.8	0.7
